Cruzain noTriton: inhibitors of Trypanosoma cruzi cruzain without detergent. purified cruzain, Z-FR-AMC fluorescence, no detergent. P25779. 200,000 compounds, 2.3% hits. Potency, µM, without a hit: max response, negative = inhibition, most hits filed as inhibitors;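 note: plate controls were enzyme without inhibitor for no effect and buffer without enzyme for full effect; nearly all actives have a fitted effect of over 40% in size; top concentration of the series not given in the record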
Target sequence (P25779 123-467 limits assumed): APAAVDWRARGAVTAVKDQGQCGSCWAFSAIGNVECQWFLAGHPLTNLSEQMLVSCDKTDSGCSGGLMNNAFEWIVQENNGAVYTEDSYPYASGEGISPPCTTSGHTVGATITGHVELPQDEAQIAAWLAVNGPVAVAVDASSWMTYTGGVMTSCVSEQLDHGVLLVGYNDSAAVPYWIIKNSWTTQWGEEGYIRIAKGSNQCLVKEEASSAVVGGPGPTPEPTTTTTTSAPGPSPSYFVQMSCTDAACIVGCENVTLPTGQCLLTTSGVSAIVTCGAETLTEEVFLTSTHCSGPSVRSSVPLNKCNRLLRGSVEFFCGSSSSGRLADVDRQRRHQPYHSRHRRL
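Purified cruzain at 1.5 nM, pre-incubated 15 min with compound at room temperature in 100 mM sodium acetate pH 5.5, 5 mM DTT, 0.00005% Triton X-100. Reaction started with 2 uM Z-FR-AMC; AMC fluorescence increase over 60 s gives rate.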
SARS PLP yeast: blocks SARS-CoV papain-like protease in a yeast assay; S. cerevisiae expressing SARS-CoV PLpro, growth rescue; control for the full effect not named in the record; AID 485353; Potency, µM (series often up to 32.9 µM), for inactives: top-dose activity, positive = growth rescue; 330,000 compounds, 0.19% hits; active means well fitted rising curve with a large enough effect; inconclusive means small, poorly fitted or top-dose-only effect; inactive means no such curve, though single readings can be large or run the other way; note: 0% is about no effect; nearly all actives have a fitted effect of over 55% in size; growth read by luminescence after 48 h
NS1 inh: influenza NS1 inhibition; S. cerevisiae slowed by influenza A NS1, growth recovery by OD600; Potency, µM (doses to about 46.1 µM), inactives show at the top dose activity, positive = more growth; 270,000 compounds, 0.4% hits; AID 2326; active means well fitted rising curve with a large enough effect; inconclusive means small, poorly fitted or top-dose-only effect; inactive means no such curve, though single readings can be large or run the other way; note: nearly all actives have a fitted effect of over 50% in size
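OD600 was taken as the measure of yeast growth restored by compound in an NS1-expressing S. cerevisiae strain. Cells had been washed out of glucose medium and diluted 1:100 into galactose -URA medium, pH 6.0.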
RE007 growth inh: less growth of the S. pombe RE007 Vpr strain. S. pombe RE007 Vpr strain, BacTiter-Glo ATP luminescence, 24 h; control for the full effect not named in the record. Potency, µM (highest dose often 92.2 µM), inactives show top-dose activity change, negative = less growth. 360,000 compounds, 0.21% hits. AID 651644; active = well fitted falling curve with a large enough effect; inconclusive = small, poorly fitted or top-dose-only effect; inactive = no such curve, though single readings can be large or run the other way;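 note: % is set by controls: 0 for no effect and ±100 for the full control effect; nearly all actives have a fitted effect of over 50% in size; the assay follows cell death caused by Vpr and the record does not say whether a fall means rescue or toxicity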
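Fission yeast strain RE007, carrying one chromosomally integrated HIV-1 vpr copy, was seeded at OD 0.01 in PMG+AL medium with 23 nL pinned compound. After 24 h at 30 °C and 99% humidity, viability was read by BacTiter-Glo luminescence.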
Cruzain Triton: cruzain (T. cruzi) inhibition with detergent; Potency, µM, for inactives: max response, negative = inhibition, most hits filed as inhibitors; AID 1478; 200,000 compounds, 0.43% hits; purified cruzain, Z-FR-AMC fluorescence, 0.01% Triton;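 note: plate controls were neutral wells for no effect and buffer without enzyme for full effect; nearly all actives have a fitted effect of over 40% in size; top concentration of the series not given in the record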
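Compounds were screened in titration against cruzain (1.5 nM) with 0.01% Triton X-100 to counter colloidal aggregation. Activity was the AMC fluorescence increase over 60 s after adding 2 uM Z-FR-AMC at pH 5.5.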
MARV entry inh: inhibitors of Marburg virus binding or cell entry; Marburg virus pseudotyped entry inhibition, cell reporter; control for the full effect not named in the record; about a third of the inactives were read at about 46 µM; Potency, µM (highest dose often 37.8 µM), for the others: at the highest dose activity change, negative = inhibition, usual class: inhibitors; 300,000 compounds, 1.8% hits; AID 540276; active = well fitted inhibition curve with a large enough effect; inconclusive = small, poorly fitted or top-dose-only effect, or effect the other way; inactive = flat fitted curve, though single readings scatter; tested in HEK293 cells; about a fifth of its hits are not listed in these tables; note: % is set by controls: 0 for no effect and ±100 for the full control effect; luciferase read-out
2A StopGo: FMDV 2A StopGo reporter, luciferase signal. 410,000 compounds, 1.2% hits. Potency, µM (series often up to 57.9 µM), without a hit: at the top dose signal change, negative = less light. human cells with a luciferase reporter of 2A StopGo recoding; control for the full effect not named in the record; active = well fitted falling curve with a large enough effect; inconclusive = small, poorly fitted or top-dose-only effect; inactive = no such curve, though single readings can be large or run the other way; tested in HEK293T cells; note: % is set by controls: 0 for no effect and ±100 for the full control effect; nearly all actives have a fitted effect of over 45% in size; luciferase light after 4 h
LASV entry inh: Lassa virus entry inhibition. Lassa virus pseudotype entry inhibition, cell reporter; control for the full effect not named in the record. Potency, µM (titrated, usually from 37.9 µM), inactives show at the top dose activity change, negative = inhibition, most hits filed as inhibitors. 300,000 compounds, 1.2% hits. AID 540256; active means well fitted inhibition curve with a large enough effect; inconclusive means small, poorly fitted or top-dose-only effect, or effect the other way; inactive means flat fitted curve, though single readings scatter; tested in HEK293 cells; note: % is set by controls: 0 for no effect and ±100 for the full control effect; nearly all actives have a fitted effect of over 50% in size; luciferase read-out
Starred values were filed as active, the others as inactive; u = inconclusive; x = not tested or not shown; & = joins results of further samples; [ ] = dose if it differs, or a comment. Unless noted, calls come from the whole dose curve; as a rule, active = well fitted curve in the direction sought with a large enough effect; inconclusive = small, poorly fitted or top-dose-only effect, or another doubt; inactive = no such curve, though single readings can be large; an effect the other way counts as inactive or inconclusive. Potency is the fitted concentration of half-maximal effect.

Compound,LASV entry inh,SARS PLP yeast,NS1 inh,Cruzain noTriton,RE007 growth inh,2A StopGo,Cruzain Triton,MARV entry inh
Clc1ccc(CSc2ncnc3nc[nH]c23)cc1,-5%,-7%,-18%,5%,2%,10%,-1.2%,-2%
O=C(CSc1nc(Cc2ccccc2)nc2ccccc12)c1ccc2c(c1)OCCO2,-8%,2%,8%,u,-6%,u,-2.1%,u
Cc1ccc(NC(=O)c2ccc(COc3ccccc3Cl)o2)cc1,2%[46.1 µM],x,x,-5%,x,-3%,-19%,x
Cc1ccc(NC(=O)C2CCCN2c2nn3c(=O)cc(C)nc3s2)cc1 (stereo not drawn),x,-6%,0%,x,-10%,0%,x,x
C=CCN1C(=O)/C(=C/c2ccc(-c3ccc(F)cc3)o2)SC1=S,x,0%,40%,x,4%[18.4 µM],-21%,x,x
Cc1ccc(NS(=O)(=O)c2ccc(CCC(=O)NCc3cccnc3)cc2)cc1,23%[46.1 µM],0%,4%,x,-9%,42%[activator],x,4%[46.1 µM]
Cc1ccc(OC(=O)CCc2c(C)nc3ncnn3c2C)cc1,2%,-1%,0%,0%,9%,-16%,3.9%,15%
CCc1ccc(CN(C(=O)c2ccco2)C2CCS(=O)(=O)C2)cc1 (stereo not drawn),u,1%,-1%,x,10%,-22%,x,-12%[46.1 µM]
Cc1ccc(-c2onc3ccc(C4OCCO4)cc23)cc1,-18%,-3%,x,x,-12%,2%,x,19%[46.1 µM]
CN(C)c1ccc(C(=O)Nc2ccc(-c3nc4ccccc4o3)cc2)cc1,u,x,x,7%,x,6%,-0.4%,x
N#Cc1cc2c(nc1Cl)CCC2,x,1%,4%,x,-3%,-3%,x,x
CCCNc1nc(C)c(C(C)=O)cc1C#N,3%,-1%,4%,2%,-8%,-18%,3.1%,-19%
O=C(CSc1ccc(-c2ccccc2)nn1)Nc1ccc2c(c1)OCCO2,u,-30%,-16%,8%,-15%,7%,-6.2%,u
CC1(C)CC(=O)C2=C(C1)N=C1SCCC(=O)N1C2c1cccc([N+](=O)[O-])c1 (stereo not drawn),x,0%,14%,x,6%,-5%,x,x
CC1CCc2nc(N)c(C#N)c(-c3cccn3C)c2C1 (stereo not drawn),-9%,-2%,-12%,-6%,-1%,u,-7.2%,11%
Fc1ccc(-n2cc(-c3ccccc3)c3c(NC4CCCCC4)ncnc32)cc1,-1%[46.1 µM],x,x,-17%,x,-20%,0.5%,x
CCOc1ccc(-c2csc(/C(C#N)=C\c3ccc(O)c([N+](=O)[O-])c3)n2)cc1,u,25%,-5%,15%,-11%,22µM*,-5.8%,u
FC(F)(F)c1nnc2ccc(Sc3ccccn3)nn12,x,0%,-12%,x,2%,-6%,x,x
CCOC(=O)C(Cc1ccccc1)C(=O)Nc1ccc(N(CC)CC)cc1 (stereo not drawn),-7%,-4%,-24%,-2%,-6%,-16%,1.3%,-2%
CCn1cc(/C=C(\NC(=O)c2ccccc2Cl)C(=O)NCCCn2ccnc2)c2ccccc21,-1%[46.1 µM],x,x,-8%,x,2%,-15%,-26%[46.1 µM]
COc1cccc(Cn2c(Oc3cc(C)cc(C)c3)nc3c2c(=O)n(C)c(=O)n3C)c1,u,x,x,20%,x,-22%,-7.3%,19%[46.1 µM]
COc1ccc(N2CCN(C(=O)c3cc(=O)c4cc(C)c(C)cc4o3)CC2)cc1,22%[46.1 µM],-2%,7%,x,-8%,-14%,x,8%[46.1 µM]
COc1ccc(/C=N\NC(=O)c2sc(N)nc2C)cc1OC,-21%,-3%,-4%,-4%,2%,41%[activator],-4.7%,u
O=C(NCCc1ccccc1)C1CCC(CNS(=O)(=O)c2ccccc2)CC1 (stereo not drawn),28%[46.1 µM],8%,0%,4%,-8%,-3%&-13%,0.5%,x
COc1ccc(N(CC(=O)N2CCCCC2)S(=O)(=O)c2ccc(OC)c(OC)c2)cc1,-7%[46.1 µM],x,x,u,x,36%[activator],-0.1%,x
COc1ccc(Nc2sc(C(=O)c3ccccc3)c(N)c2C(=O)Nc2cc(C)ccc2C)c(OC)c1,-10%[46.1 µM],x,x,10µM*,x,-9%,-1.1%,x
O=C1CN(c2ccccc2)C(=S)N1c1ccccc1,-1%,-3%,9%,x,-4%,5%,x,0%
CCCOC(=O)Nc1sc2c(c1C(=O)OCC)CCC2,9%,1%,-10%,u,5%,x,-8.3%,5%
CCN(CCCNC(=O)CSc1cc(=O)n(CC)c2ccccc12)c1ccccc1,-16%[46.1 µM],x,x,u,x,-27%,-3.4%,u
COc1ccccc1C(=O)COC(=O)c1ccc(-n2cnnn2)cc1,11%,0%,x,x,-4%,22%,x,1%
COc1ccc(C(=O)OCC(=O)NCC2CCCCC2)c(OC)c1,u,3%,x,x,-9%,-23%,x,-9%[46.1 µM]
CC(C)(C)c1cc(C(c2cccnc2)N2CCN(CCO)CC2)cc(C(C)(C)C)c1O (stereo not drawn),u,-33%,-163%,1%,u,x,-1.2%,u
CCOC(=O)c1cc(C)n(CC2CCC(C(=O)Nc3ccc(C)c(F)c3)CC2)c1C (stereo not drawn),-5%[46.1 µM],x,x,-12%,x,u,-6.2%,x
CC(OC(=O)CCc1nc(=O)c2ccccc2n1C)C(=O)NCc1ccc2c(c1)OCO2 (stereo not drawn),x,1%,1%,x,8%,-30%,x,x
CCOC(=O)C1=C(C)NC(=S)NC1c1ccsc1 (stereo not drawn),15%,0%,2%,x,4%,-11%,x,-13%
CC1=CC(c2ccc(Cl)cc2)n2nc(NS(=O)(=O)c3ccc(C)cc3)nc2N1 (stereo not drawn),11%,-4%,10%,u,-16%,-8%,-9.1%,u
CCn1cc(C(=O)N2CCN(c3cccc(Cl)c3)CC2)c(=O)c2cc(S(=O)(=O)N3CCC(C)CC3)ccc21,-28%[46.1 µM],x,x,u,x,0%,-11%,u
NNC(=O)c1ccc(CSc2cccc3cccnc23)cc1,19%,-2%,x,x,24%,20%,x,2%[46.1 µM]
O=C1C2ON(c3ccccc3)C(c3cccnc3)C2C(=O)N1c1ccccc1 (stereo not drawn),16%,2%,18%,-3%,17%,-6%,3.7%,18%
COc1ccc(S(=O)(=O)N(CC(=O)Nc2ccc(OC)cc2OC)c2ccc(Cl)cc2)cc1,u,x,x,-5%,x,3.2µM*,-2.7%,u
COc1cccc2cc(C(=O)NCc3ccc(C)cc3)c(=O)oc12,-1%[46.1 µM],-1%,3%,x,-11%,21%,x,-8%[46.1 µM]
O=C(CSCc1ccc(F)cc1)NCc1ccc2c(c1)OCO2,4%[46.1 µM],0%,x,x,18%,15%,x,5%[46.1 µM]
Cc1cc(NS(=O)(=O)c2ccc(NC(=O)C(C)Oc3cccc(C)c3C)cc2)nc(C)n1 (stereo not drawn),u,-1%,12%,x,-9%,32%[activator],x,-21%
CCOC(=O)c1ccc(S(=O)(=O)N2CCNCC2)cc1,21%,11%,15%,6%,26%,8%,5.5%,15%
CCN1CCN(c2cc(C)c3cc(NC(=S)NCCCN4CCc5ccccc5C4)ccc3n2)CC1,-24%,3%,x,x,-4%,1%,x,13µM*
CCN(CC)S(=O)(=O)c1ccc2c(c1)N(CC(=O)Nc1c(C)cc(C)cc1C)C(=O)C1CCCN21 (stereo not drawn),3%[46.1 µM],x,x,-15%,x,-6%,1.9%,x
CCc1cc(C(=O)NNC(=S)NCC2CCCO2)cs1 (stereo not drawn),29%,-3%,5%,4%,17%,19%,3.7%,14%
COc1cc2c(cc1OC)C(COc1ccccc1OC)N(C(=O)c1ccc(S(=O)(=O)N(C)C)cc1)CC2 (stereo not drawn),u,x,x,u,x,5%,0.4%,x
O=P(NCc1ccccc1)(Oc1ccccc1)Oc1ccccc1,x,11%,-3%,4%,23%,-13%,-10%,x
CCc1ccccc1NC(=O)c1cc2sccc2n1C,x,-4%,-36%,-10%,-9%,3%,-2.9%,x
CN(C)CCCOc1ccc(C(C)(C)c2ccccc2)cc1,u,6%,-23%,3%,24%,-15%,-0.8%,13µM*
CCOC(=O)N1[C@@H]2C=C(C)[C@@H]2[C@@H]2[C@@H](C)C(=O)N21,4%,u,-3%,13µM*,17%,1%,13µM*,-3%
COc1cc(C(=O)N2CCN(S(=O)(=O)c3cccs3)CC2)cc(OC)c1C,x,-2%,0%,x,10%,9%,x,x
CCOC(=O)c1cnc(-n2cc(C)cn2)nc1Nc1ccccc1OCC,-30%,5%,-134%,u,9%,-20%,-3.6%,-2%
O=C1c2ccccc2C(=O)N1OCCOCCOCCON1C(=O)c2ccccc2C1=O,10%,16%,-19%,3%,13%,-14%,-1.1%,-2%
O=C(O)c1cc([N+](=O)[O-])ccc1Oc1ccccc1,20%[46.1 µM],x,x,x,2%,6%,x,26%
CCCCCCN1C=CC=C/C1=C/C=C(C#N)C#N,0%,2%,3%,-28%,7%,-24%,-28%,-2%
Cc1occc1C(=O)Nc1nnc(-c2cccs2)s1,6%[46.1 µM],1%,-37%,x,-8%,31%[activator],x,u
COc1ccc(NC(=O)NCCc2cccc(Cl)c2)cc1OC,0%,-2%,-1%,x,3%,34%[activator],x,4%
Cc1cccc(NC(=O)CSc2c3c(nc4ccccc24)CCC3)n1,-17%[46.1 µM],-5%,x,x,6%,u,x,u
Cc1ccc(C(=O)N/C(=C\c2ccc(F)cc2)C(=O)NCCCn2ccnc2)cc1,9%,0%,-1%,x,-21%,26%,x,-1%[46.1 µM]
CN1C(=O)/C(=C/c2cn(CC(=O)N3CCCCC3)c3ccccc23)c2ccccc21,x,1%,13%,u,x,x,-7.5%,-2%
